Marburg entry inh – inhibitors of Marburg virus binding or cell entry; Marburg virus pseudotyped entry inhibition, cell reporter; control for the full effect not named in the record; about a third of the inactives were read at about 46 µM; Potency, µM (highest dose often 37.8 µM), inactives show at the highest dose activity change, negative = inhibition, actives largely listed as inhibitors; 300,000 compounds, 1.8% hits; AID 540276; active = well fitted inhibition curve with a large enough effect; inconclusive = small, poorly fitted or top-dose-only effect, or effect the other way; inactive = flat fitted curve, though single readings scatter; tested in HEK293 cells; about a fifth of its hits are not listed in these tables; note: % is set by controls: 0 for no effect and ±100 for the full control effect; luciferase read-out
Cruzain inh noDet – blocks cruzain activity in detergent-free assay. P25779. purified cruzain, Z-FR-AMC fluorescence, no detergent. Potency, µM, for the others: max response, negative = inhibition, most hits filed as inhibitors. 200,000 compounds, 2.3% hits. AID 1476;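 note: plate controls were enzyme without inhibitor for no effect and buffer without enzyme for full effect; nearly all actives have a fitted effect of over 40% in size; top concentration of the series not given in the record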
Target sequence (P25779 123-467 limits assumed): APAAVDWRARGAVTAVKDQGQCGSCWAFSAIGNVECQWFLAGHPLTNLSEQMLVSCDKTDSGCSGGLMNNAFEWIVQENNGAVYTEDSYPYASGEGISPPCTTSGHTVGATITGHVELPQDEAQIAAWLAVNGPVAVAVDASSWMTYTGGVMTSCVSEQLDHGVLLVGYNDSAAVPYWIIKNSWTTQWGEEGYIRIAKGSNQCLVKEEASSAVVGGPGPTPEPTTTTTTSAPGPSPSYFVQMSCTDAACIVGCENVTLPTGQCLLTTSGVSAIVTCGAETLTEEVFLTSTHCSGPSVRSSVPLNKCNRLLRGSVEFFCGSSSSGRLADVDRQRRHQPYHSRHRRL
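Purified cruzain at 1.5 nM, pre-incubated 15 min with compound at room temperature in 100 mM sodium acetate pH 5.5, 5 mM DTT, 0.00005% Triton X-100. Reaction started with 2 uM Z-FR-AMC; AMC fluorescence increase over 60 s gives rate.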
SARS PLP yeast – inhibitors of SARS-CoV papain-like protease in yeast; 330,000 compounds, 0.19% hits; S. cerevisiae expressing SARS-CoV PLpro, growth rescue; control for the full effect not named in the record; Potency, µM (top dose mostly 32.9 µM), inactives show top-dose activity, positive = growth rescue; active means well fitted rising curve with a large enough effect; inconclusive means small, poorly fitted or top-dose-only effect; inactive means no such curve, though single readings can be large or run the other way; note: 0% is about no effect; nearly all actives have a fitted effect of over 55% in size; growth read by luminescence after 48 h
Cruzain Triton – inhibitors of Trypanosoma cruzi cruzain with detergent. AID 1478. 200,000 compounds, 0.43% hits. Potency, µM, inactives show max response, negative = inhibition, actives largely listed as inhibitors. purified cruzain, Z-FR-AMC fluorescence, 0.01% Triton;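 note: plate controls were neutral wells for no effect and buffer without enzyme for full effect; nearly all actives have a fitted effect of over 40% in size; top concentration of the series not given in the record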
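In this qHTS format, compounds are incubated with 1.5 nM cruzain for 15 min at room temperature before 2 uM Z-FR-AMC is added. Release of AMC is followed at 360/450 nm, and progress is taken as the 60 s fluorescence difference.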
NS1 inh – blocks influenza NS1 protein function; S. cerevisiae slowed by influenza A NS1, growth recovery by OD600; 270,000 compounds, 0.4% hits; Potency, µM (top dose mostly 46.1 µM), for the others: top-dose activity, positive = more growth; active means well fitted rising curve with a large enough effect; inconclusive means small, poorly fitted or top-dose-only effect; inactive means no such curve, though single readings can be large or run the other way; note: nearly all actives have a fitted effect of over 50% in size
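In this qHTS, NS1 from influenza A is expressed in budding yeast, where it slows growth. Cells are switched from glucose to 2% galactose medium (pH 6.0, -URA), treated with compound, and growth recovery is read at OD600.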
2A StopGo – lowers the luciferase signal of an FMDV 2A StopGo reporter; human cells with a luciferase reporter of 2A StopGo recoding; control for the full effect not named in the record; Potency, µM (titrated, usually from 57.9 µM), for the others: at the highest dose signal change, negative = less light; 410,000 compounds, 1.2% hits; AID 1159524; active = well fitted falling curve with a large enough effect; inconclusive = small, poorly fitted or top-dose-only effect; inactive = no such curve, though single readings can be large or run the other way; tested in HEK293T cells; note: % is set by controls: 0 for no effect and ±100 for the full control effect; nearly all actives have a fitted effect of over 45% in size; luciferase light after 4 h
Lassa entry inh – blocks Lassa virus binding to or entry into cells; Lassa virus pseudotype entry inhibition, cell reporter; control for the full effect not named in the record; Potency, µM (titrated, usually from 37.9 µM), inactives show at the top dose activity change, negative = inhibition, usual class: inhibitors; 300,000 compounds, 1.2% hits; AID 540256; active means well fitted inhibition curve with a large enough effect; inconclusive means small, poorly fitted or top-dose-only effect, or effect the other way; inactive means flat fitted curve, though single readings scatter; tested in HEK293 cells; note: % is set by controls: 0 for no effect and ±100 for the full control effect; nearly all actives have a fitted effect of over 50% in size; luciferase read-out
RE007 growth inh – less growth of the S. pombe RE007 Vpr strain. S. pombe RE007 Vpr strain, BacTiter-Glo ATP luminescence, 24 h; control for the full effect not named in the record. Potency, µM (doses to about 92.2 µM), inactives show at the top dose activity change, negative = less growth. 360,000 compounds, 0.21% hits. AID 651644; active = well fitted falling curve with a large enough effect; inconclusive = small, poorly fitted or top-dose-only effect; inactive = no such curve, though single readings can be large or run the other way;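 note: % is set by controls: 0 for no effect and ±100 for the full control effect; nearly all actives have a fitted effect of over 50% in size; the assay follows cell death caused by Vpr and the record does not say whether a fall means rescue or toxicity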
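Fission yeast RE007 carrying one integrated HIV-1 vpr copy, seeded at OD 0.01 in PMG+AL medium with 23 nL pinned compound. Grown 24 h at 30 degrees; viability read by BacTiter-Glo luminescence after 5 min.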
Active calls of the source: *; ? = inconclusive; / = no result given; & = joins results of further samples; [ ] = remark or other dose. Unless noted, calls come from the whole dose curve; as a rule, active = well fitted curve in the direction sought with a large enough effect; inconclusive = small, poorly fitted or top-dose-only effect, or another doubt; inactive = no such curve, though single readings can be large; an effect the other way counts as inactive or inconclusive. Potency is the fitted concentration of half-maximal effect.

Second line of a record: Marburg entry inh	Cruzain inh noDet	SARS PLP yeast	Cruzain Triton	NS1 inh	2A StopGo	Lassa entry inh	RE007 growth inh
- Cn1cccc1-c1cc2n(n1)CCC(=O)N2CC(=O)Nc1ccc(F)cc1Cl
  /	25%	/	-0.7%	/	17%	-5%[46.1 µM]	/
- CN(c1ccccc1)S(=O)(=O)c1cccc(NC(=O)COC(=O)C2CCCCC2)c1
  /	/	-1%	/	7%	14%	/	20%
- O=C(CCn1cnc2ncccc2c1=O)N1CCN(c2cccc(Cl)c2)CC1
  ?	/	1%	/	1%	?	2%	4%
- CCc1ccc(/C(C)=N/NC(=O)CNC(=O)/C=C/c2ccccc2OC)cc1
  ?	/	0%	/	-5%	-20%	-28%[46.1 µM]	2%
- O=C(NCc1ccc(F)cc1)C(c1ccccc1)c1ccccc1
  /	/	8%	/	5%	-7%	/	0%
- Cc1cccc(N2CCN(C(=O)CN3C(=O)NC(C)(C4CC4)C3=O)CC2)c1C (configuration not stated)
  24%	/	-4%	/	/	-7%	10%	-26%
- CCCN1CCO[C@@H]2c3cc(O)ccc3OC[C@H]21
  ?	6%&-4%	/	3.7%&2.0%	0%&-7%	0%&-6%&6%	7%&3%	1%[18.4 µM]
- CCOC(=O)c1sc2nc(C)n(CC(=O)Nc3cccc(Cl)c3)c(=O)c2c1C
  27%[46.1 µM]	-1%	/	0.1%	/	3%	11%[46.1 µM]	/
- Cc1ccc(C2c3[nH]c4ccccc4c3CCN2C(=O)Nc2ccc(C)c(C)c2)cc1 (configuration not stated)
  /	?	/	0.9%	/	6%	?	/
- COc1cccc(CNC(=O)c2ccc(CS(=O)(=O)Cc3ccc(C)cc3)o2)c1
  -1%[46.1 µM]	/	-3%	/	/	-18%	19%[46.1 µM]	-11%
- Cc1sc(NC(=O)CCS(=O)(=O)c2ccccc2)c(C#N)c1C
  4%	/	11%	/	/	-9%	?	0%
- CC1CCCN(c2ccc(C(=O)Nc3cccnc3)cc2[N+](=O)[O-])C1 (configuration not stated)
  ?	/	-11%	/	/	-1%	?	-12%
- O=C(CCS(=O)(=O)c1ccc(Br)cc1)NCCC1=CCCCC1
  /	/	3%	/	-3%	2%	/	-6%
- Cc1ccc(N)c(N)c1
  /	-2%	-1%	-13%	/	1%	/	?
- O=C(Cn1c(=O)oc2ccccc21)Nc1ccc2c(c1)OCCO2
  11%	-16%	4%	4.7%	-6%	26%	15%	32%
- O=c1c2ccccc2c2ccccc2c(=O)n1CC1CCCO1 (configuration not stated)
  6%	-5%	-4%	-0.1%	-41%	-19%	7%	-2%
- COCCNC(=S)NN=C1CCC(c2ccccc2)CC1 (configuration not stated)
  -2%[46.1 µM]	/	10%	/	13%	-4%	-28%[46.1 µM]	2%
- CCCC(=O)Nc1ccc(NC(=O)C2CC2)cn1
  -3%	-8%	3%	1.9%	11%	33%[activator]	26%	7%
- Cc1ccccc1S(=O)(=O)c1cc2ccccc2nc1N
  1%[46.1 µM]	/	1%	/	-3%	2%	0%	22%
- O=C(COc1ccccc1F)Nc1ccc(OCc2cc(=O)n3ccccc3n2)cc1
  /	25%	/	0.5%	/	16%	?	/
- O=C(CCNS(=O)(=O)c1ccc(Br)cc1)NC1CCN(Cc2ccccc2)CC1
  -10%	/	3%	/	2%	?	1%	-7%
- Cc1nn(-c2ccc(F)cc2)c(Cl)c1/C=C/C(=O)OCC(=O)Nc1c(F)c(F)c(F)c(F)c1F
  0%[46.1 µM]	-6%	-3%	-0.7%	-16%	-17%	-7%&1%	-1%
- COc1ccc(OC)c(C2=NO[C@@H]3C(=O)N(c4cc(Cl)ccc4OC)C(=O)[C@H]23)c1
  -2%	-25%	-1%	-2.5%	-44%	12%	?	-4%
- O=C(Nc1nnc(C2CC2)s1)C1Cc2ccccc2CN1S(=O)(=O)c1cccs1 (configuration not stated)
  -2%	?	?	-8.0%	-15%	26%	8%	0%
- COc1ccc(S(=O)(=O)N(C)C)cc1NC(=O)Cc1c[nH]c2ccccc12
  -2%[46.1 µM]	/	0%	/	/	16%	?	2%
- N#CC(c1ccc(Cl)cc1)c1ccc(Cl)nn1 (configuration not stated)
  ?	-18%	-12%	1.8%	0%	6%	13%	-4%
- CCOC(=O)C1=C(C)N(C)C(C)=C(C(=O)OCC)C1c1cccnc1
  ?	15%	-7%	-8.4%	-14%	9%	-1%	18%
- CCOc1ccc2nc(SCCNS(=O)(=O)c3ccccc3)sc2c1
  ?	15%	0%	-7.8%	-2%	-28%	?	-12%
- O=C(NNC(=S)Nc1ccc(Cl)c(Cl)c1)c1cccc([N+](=O)[O-])c1
  ?	/	4%	/	-33%	18%	4%	-7%
- Cn1nc(C(=O)NCc2ccccc2)c2c1-c1ccccc1SC2
  -19%[46.1 µM]	-1%	/	-2.5%	/	24%	-5%[46.1 µM]	/

Quoted at random: 2 entries already listed, in no set order.
Second line of a record: Marburg entry inh	Cruzain inh noDet	SARS PLP yeast	Cruzain Triton	NS1 inh	2A StopGo	Lassa entry inh	RE007 growth inh
- Cc1cccc(N2CCN(C(=O)CN3C(=O)NC(C)(C4CC4)C3=O)CC2)c1C (configuration not stated)
  24%	/	-4%	/	/	-7%	10%	-26%
- CCOC(=O)c1sc2nc(C)n(CC(=O)Nc3cccc(Cl)c3)c(=O)c2c1C
  27%[46.1 µM]	-1%	/	0.1%	/	3%	11%[46.1 µM]	/

(listing goes on)
Second line of a record: Marburg entry inh	Cruzain inh noDet	SARS PLP yeast	Cruzain Triton	NS1 inh	2A StopGo	Lassa entry inh	RE007 growth inh
- COCCNC(=O)C(C)N(c1ccc(Oc2ccccc2)cc1)S(C)(=O)=O (configuration not stated)
  1%	?	1%	4.1%	-15%	-10%	1%	-10%
- COc1ccc(C2C=C(c3ccc(Br)cc3)Nc3nc(N4C(=O)CCC4=O)nn32)cc1 (configuration not stated)
  -1%&-1%	?	-2%	2.2%	-40%	?	0%	-7%
- S=C(NCCN1CCCCC1)Nc1ccc(Br)cc1
  ?	/	0%	/	1%	-9%	-25%	-5%
- CN1CCN(c2nc3c(c(=O)[nH]c(=O)n3C)n2CCSc2nc3ccccc3s2)CC1
  /	-3%	-1%	-2.0%	0%	-20%	/	10%
- O=C(Nc1ccccc1)c1ccsc1
  16%	1%	-28%	-0.4%	-9%	20%	3%	-7%
- CCNc1nc(NCC)nc(N(C)/N=C/c2ccco2)n1
  /	/	-1%	/	-5%	-4%	/	-12%
- CC1CCN(Cc2c(C(=O)O)nnn2-c2nonc2N)CC1
  /	/	-1%	/	2%	-16%	/	4%
- CC1(C)CC(=O)C=C(C(=O)N2CCCC(C(=O)c3cccc(Cl)c3)C2)O1 (configuration not stated)
  0%	/	0%	/	1%	-6%	5%	-1%
- Cc1ccc(C(CC(=O)Nc2cc(C)cc(C)c2)N2Cc3ccccc3C2=O)cc1 (configuration not stated)
  /	-7%	/	-6.2%	/	14%	?	/
- O=C(c1ccccc1F)N1CCCc2ccccc21
  /	/	-2%	/	-26%	9%	/	1%
- O=C(NCc1ccco1)c1c[nH]c2ccc(S(=O)(=O)Nc3ccc(F)cc3F)cc2c1=O
  ?	-19%	/	-8.8%	/	56%[activator]	?	/
- CC(C)[n+]1ccn(C2=C([O-])c3ccccc3C(=O)/C2=N\S(=O)(=O)c2ccccc2)c1
  ?	/	0%	/	3%	?	2%	4%
- Cc1ccc(Cl)cc1N1CCN(Cc2nnc(-c3ccc4c(c3)OCO4)o2)CC1
  2%[46.1 µM]	6%	/	-5.8%	/	0%	-14%[46.1 µM]	/
- C/C(=N\NC(=O)c1cccnc1)c1ccccc1
  ?	/	1%	/	5%	71%[activator]	26%	-5%
- COc1ccc(Cl)cc1C(=O)NCCS(=O)(=O)N1CCN(c2ccccc2OC)CC1
  /	?	/	-4.4%	/	8.9µM*	-13%[46.1 µM]	/
- COC(=O)C1=C(C)N(Cc2ccccc2)C(=S)N[C@H]1c1cccc(C(F)(F)F)c1
  -35%[14.2 µM]	/	-1%&-10%	/	-43%	16%	/	15%
- O=C(CCN1C(=O)C2CCCCC2C1=O)N1CCN(S(=O)(=O)c2cccc(F)c2)CC1 (configuration not stated)
  1%	/	-7%	/	/	-13%	9%	-2%
- CC(CC(=O)Nc1ccc(-c2ccno2)cc1)n1cccn1 (configuration not stated)
  /	/	-6%	/	5%	-1%	/	3%
- Nc1nc2c(nc(SCc3ccccc3Br)n2[C@@H]2O[C@H](CO)[C@@H](O)[C@H]2O)c(=O)[nH]1
  15%[46.1 µM]	/	2%	/	9%	-11%	-6%[46.1 µM]	-11%
- O=C1CC=C2C3CC4N(CCC45c4cc(O)c(O)cc4N1C25)CC3=CCBr (configuration not stated)
  -12%	/	/	/	/	-19%	9%[46.1 µM]	-5%
- CC1CCN(c2nc3c(c(=O)n(C)c(=O)n3C)n2Cc2ccccc2)CC1
  -23%	-1%	-3%	-2.9%	-40%	/	7.3µM*	16%
- C=CCn1nc(-c2ccccc2)c2c(C)onc2c1=O
  0%[46.1 µM]	/	0%	/	-4%	-10%	-14%[46.1 µM]	2%
- Cc1ccc(C(=O)Nc2ccc(S(=O)(=O)N3CCc4ccccc43)cc2)o1
  -29%	-16%	/	0.2%	-48%	-21%	?	8%
- Cc1onc(-c2c(Cl)cccc2Cl)c1C(=O)NCCCN1CCOCC1
  5%	-1%	/	4.5%	-5%	-8%	21%	16%
- CC(=O)Nc1ccc(S(=O)(=O)N2CCN(C(=O)c3ncoc3-c3ccc(F)cc3)CC2)cc1
  ?	/	-8%	/	-2%	-17%	-18%[46.1 µM]	3%
